# Screening results as filed in PubChem.
# Arbovirus anti – antivirals against arbovirus infection, primary screen, cell-based, full library, 10K replicate subset; 200,000 compounds, 0.37% hits; inhibition, % at 10 µM; arbovirus infection cell-based antiviral screen;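 active means inhibition from about 30%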;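 further: bluetongue infection of BSR cells; cell survival read as ATP light after 72 h; 0% = infected wells without compound and 100% = uninfected wells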
# YopH PTP inh – YopH tyrosine phosphatase inhibitors, primary screen, biochemical, fluorescence Ex485/Em525; YopH tyrosine phosphatase [Yersinia enterocolitica]; inhibition, %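 (about 10 µM by stock and volumes)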; 140,000 compounds, 0.16% hits;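 active means inhibition of 50% or more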;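 further: controls were vehicle for no effect and minimum signal wells for full effect; inactives centre near -20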
# RecA intein inh – Mtb RecA intein splicing inhibitors, primary screen, biochemical, fluorescence, HTS; cell-free RecA intein splicing; 290,000 compounds, 0.75% hits; AID 2221, 2009; Protein RecA (Mycobacterium tuberculosis (strain ATCC 25618 / H37Rv)), P9WHJ3; inhibition, %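 (about 9 µM by stock and volumes)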; in the data active means inhibition above about 30%; inconclusive means no clear call, values can overlap the other calls;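 further: 0% = vehicle wells and 100% = reference inhibitor control wells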
# Target sequence (P9WHJ3 whole entry, looked up): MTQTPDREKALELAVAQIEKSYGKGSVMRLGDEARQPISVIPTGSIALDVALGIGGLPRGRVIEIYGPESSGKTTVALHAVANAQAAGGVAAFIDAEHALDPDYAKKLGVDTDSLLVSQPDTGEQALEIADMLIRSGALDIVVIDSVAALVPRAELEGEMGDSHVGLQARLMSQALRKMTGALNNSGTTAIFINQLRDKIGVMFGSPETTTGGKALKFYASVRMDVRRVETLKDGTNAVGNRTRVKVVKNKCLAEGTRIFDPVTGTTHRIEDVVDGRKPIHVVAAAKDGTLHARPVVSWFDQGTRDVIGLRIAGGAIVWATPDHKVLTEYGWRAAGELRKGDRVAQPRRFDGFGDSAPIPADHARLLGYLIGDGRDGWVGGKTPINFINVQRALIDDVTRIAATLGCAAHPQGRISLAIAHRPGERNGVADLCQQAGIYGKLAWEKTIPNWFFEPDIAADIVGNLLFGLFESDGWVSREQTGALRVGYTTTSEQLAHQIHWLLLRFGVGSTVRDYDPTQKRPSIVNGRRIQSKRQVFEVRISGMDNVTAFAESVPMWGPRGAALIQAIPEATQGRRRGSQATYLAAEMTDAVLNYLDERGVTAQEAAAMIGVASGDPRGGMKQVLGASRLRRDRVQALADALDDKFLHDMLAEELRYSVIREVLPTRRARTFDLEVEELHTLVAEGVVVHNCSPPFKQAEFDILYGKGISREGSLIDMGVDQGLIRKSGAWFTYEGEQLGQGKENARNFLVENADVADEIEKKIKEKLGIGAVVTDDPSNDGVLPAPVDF
# Mtb H37Rv – M. tuberculosis H37Rv growth inhibitors, H37Rv strain (AID 1626); 220,000 compounds, 0.95% hits; M. tuberculosis H37Rv growth inhibition; higher % means a stronger effect; inhibition, % at 10 µM, or IC50 in µM where a hit was titrated;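 active means confirmed in a dose series; inconclusive means inhibition above 80% but not taken into the dose series; inactive means below 80% or under 30% at every dose of the series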;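 further: bacteria incubated seven days before Alamar blue readout; 0% = bacteria only wells and 100% = bacteria with antibiotic wells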
# Mtb bLac sens – beta-lactam sensitization of Mtb H37Rv, H37Rv; M. tuberculosis H37Rv growth with meropenem, percent inhibition; hits of this screen are not shown here; inhibition, % at 25 µM; 330,000 compounds, 0.27% hits; AID 434955, 2010;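 active means about 74% or more and at least 40 points above the plate without the antibiotic, then above 30% in a dose series; inconclusive means first-round hits that could not be retested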;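 further: growth measured after seven days incubation then overnight dye step; 0% = bacteria only wells and 100% = bacteria with antibiotic; twin plates without the antibiotic show which effects depend on it; some results filed as inactive read as strong as hits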
# Arbovirus anti repeat – recorded beside Arbovirus anti, whose call it bears; inhibition, %; measured here: 10K subset replicate screen; many hits read low in the repeat;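 first of two repeat runs on a subset; 0% = infected and 100% = uninfected wells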
# Numbers without * were called inactive; ? = inconclusive; nt = no result given.
SMILES,Arbovirus anti,YopH PTP inh,RecA intein inh,Mtb H37Rv,Mtb bLac sens,others
C=CCn1c(C)c(C(C)=O)c(SC)nc1=S,2.6,-25.9,nt,-4.8%,?,Arbovirus anti repeat=2.5
COc1ccc(OCC(=O)O/N=C(\N)c2ccc(OC)c(OC)c2)cc1,9.8,-18.7,2.4,3.8%,3.9,
CC1(C)CC(NCc2ccc3c(c2)OCO3)CCO1 (stereo unspecified),5.8,-5.1,1.5,-1.8%,-14.0,
CC1CCCN(C(=O)C2CCN(Cc3ccc4c(c3)OCO4)CC2)C1 (stereo unspecified),nt,nt,-0.5,nt,-4.3,
CN(C)c1cccc(C(=O)NC2CCCCCC2)c1,-11.2,14.8,-0.1,7.8%,-0.6,
COc1cc2nc(COc3ccc(C#N)cc3)n(CC#N)c(=O)c2cc1OC,0.2,-33.9,-1.1,1.2%,-17.1,
CC1(C)CC(=O)C(C2=NC(C)(C)Cc3ccccc32)=C(O)C1,-3.2,-39.1,1.2,-3.8%,-13.9,
COC(=O)C1=C(N)Oc2cc(C)n(CCN3CCOCC3)c(=O)c2C1c1cccnc1 (stereo unspecified),-4.7,-44.9,-0.2,-0.1%,-1.3,
COc1cccc(C(O)C2OC(=O)c3ccccc32)c1OC (stereo unspecified),nt,nt,0.4,nt,-6.6,
Cc1cccc(NC(=O)CCSc2nncn2C)c1,2.8,-40.7,1.0,-6.6%,-8.2,
COc1ccc(-n2c(CNC(=O)COc3ccc(Cl)cc3Cl)n[nH]c2=S)cc1,3.7,nt,1.0,nt,-2.5,
CCCCC(=O)NC(c1cccs1)c1cc(Cl)c2cccnc2c1O (stereo unspecified),-27.0,nt,5.0,-17.2%,4.9,
O=C(NCc1ccccc1)c1cc(=O)c2ccccc2o1,0.1,nt,1.5,6.7%,11.0,
CC(C)c1ccccc1NC(=O)COC(=O)/C=C/c1cccc([N+](=O)[O-])c1,-3.6,-52.0,7.3,3.4%,3.2,
COC(=O)Cc1ccc(NC(=S)NN2CCOCC2)cc1,3.2,-11.2,2.0,-2.0%,-0.8,
CC(C)[C@H](NC(=O)C1CCN(S(=O)(=O)c2ccccc2)CC1)C(=O)NCc1ccncc1,nt,nt,0.4,nt,2.6,
O=S(=O)(Nc1ccc(-c2ccc3nncn3n2)cc1)c1cc(F)ccc1F,nt,nt,-2.0,nt,1.1,
Cc1ccc(C(=O)NCc2ccc3c(c2)OCO3)cc1,nt,nt,-1.8,nt,10.2,
CCOC(=O)C1CCCN(C(=O)CCCn2nc(C)n3c(cc4sccc43)c2=O)C1 (stereo unspecified),1.2,-48.1,0.0,-10.6%,-4.1,Arbovirus anti repeat=-0.4
O=C(N/N=C/C=C/c1ccccc1[N+](=O)[O-])c1cc(-c2cccnc2)nc2ccccc12,-17.2,-18.7,-1.9,11.9%,15.1,
CN1CCN(/N=C/c2ccc(OCc3ccccc3)cc2)CC1,nt,nt,0.0,-4.0%,1.8,
O=C(Nc1cccc(S(=O)(=O)N2CCCCC2)c1)C1CC(=O)N(c2ccc3c(c2)OCCO3)C1 (stereo unspecified),nt,nt,-0.6,nt,0.4,
CC(OC(=O)c1c2c(nc3ccccc13)/C(=C\c1ccc3c(c1)OCO3)CCC2)C(=O)Nc1ccc(S(N)(=O)=O)cc1 (stereo unspecified),-34.9,-15.6,nt,?,nt,
CCCC(=O)Nc1ccccc1NC(=O)c1ccc(OCC)c(OCC)c1,1.4,nt,-3.7,5.5%,-5.8,
CCC1SC(CC)C(=O)N(CC(=O)Nc2ccc3c(c2)OCO3)C1=O (stereo unspecified),-7.5,-16.6,3.4,-1.2%,-8.4,
CSc1nc(N)nc(C2CC2)n1,nt,nt,1.1,-14.6%,-4.4,
Cc1nnsc1C(=O)NNC(=O)c1cccc2ccccc12,nt,nt,-1.6,-7.2%,5.7,
COc1ccc(CNS(=O)(=O)c2ccc3c(c2)CCN3C(=O)C2CCC2)cc1,nt,nt,-3.4,nt,13.3,
O=C1CSC(c2ccc(Cl)cc2)N1C1CCCCC1 (stereo unspecified),-16.3,-1.6,8.8,6.5%,-4.7,
CC(NC(=O)CCC(=O)NC(C)C1COc2ccccc2O1)C1COc2ccccc2O1 (stereo unspecified),5.1,-55.8,-2.3,7.7%,-6.0,
CCOC(=O)CSc1nnc(Cn2c(=O)sc3ccccc32)n1-c1ccccc1C,-0.2,-33.7,0.2,8.3%,-8.3,Arbovirus anti repeat=-2.0
O=[N+]([O-])c1ccccc1S(=O)(=O)Oc1ccc(/C=N/n2cnnc2)cc1,-0.9,-16.9,-3.5,1.1%,-4.8,
COCCNc1cc(-c2ccccc2)nc2cc(-c3cccc(F)c3)nn12,nt,nt,7.5,nt,82.5,
CCCSc1nc(=S)n(Cc2ccccc2)c(C)c1C(C)=O,3.2,nt,17.2,3.0%,-1.0,
O=c1[nH]c(/C(Cl)=C/c2cccc(C(F)(F)F)c2)nc2cc(Cl)ccc12,6.8,-11.9,0.8,-4.8%,-5.7,
CCC(=O)Nc1ccc2c(c1)nc(CN1CCN(C(C)=O)CC1)n2C,6.1,12.9,-0.3,-7.8%,-0.7,
COc1ccc(-c2[nH]ncc2CN(C)CC2CCCCO2)cc1F (stereo unspecified),-1.4,nt,-2.0,1.7%,2.4,
COc1ccc(CCC(=O)NNC(=O)c2ccc(OC)cc2)cc1,nt,nt,0.8,nt,-0.9,
COc1cc(NC(=O)c2cc3nc(C4CC4)cc(C(F)(F)F)n3n2)c(OC)cc1Cl,5.8,-36.1,-0.1,nt,24.2,
Cc1onc(-c2ccccc2)c1C(=O)N/N=C/C=C/c1ccccc1,nt,nt,1.0,-13.4%,-3.3,
C[C@H]1CCC2[C@](C)(CO)[C@@H](O)CC[C@]2(C)[C@@]12CCC(CO)(CCO)O2 (stereo partly specified),nt,nt,-3.3,nt,2.0,
CC(C)=Cc1oc2ccc([N+](=O)[O-])cc2c1N1CCOCC1,-4.1,nt,-4.9,-2.1%,6.6,
Cc1ccc(-c2nc(CN3CCCCC3c3cccc(F)c3)c(C)o2)o1 (stereo unspecified),4.0,nt,3.6,4.1%,0.3,
CCOCCOC(=O)COC(=O)c1ccccc1NC(=O)c1ccccc1,-7.1,-19.8,-0.2,43.4%,93.1,
CC(C)N1CC(O)=C(c2nc3ccccc3[nH]2)C1=N,-10.1,-37.1,2.6,1.0%,1.6,
CCN(CCCNC(=O)CNC(=O)c1nn(-c2ccc(OC)cc2)c(=O)c2ccccc12)c1cccc(C)c1,nt,nt,6.9,nt,0.9,
CCOC(=O)Cn1c2ccc(F)cc2c2nc(C)sc21,-3.0,nt,4.6,28.8%,99.3,
Cc1c(NS(=O)(=O)c2ccc(NCC3CCCO3)c([N+](=O)[O-])c2)c(=O)n(-c2ccccc2)n1C (stereo unspecified),5.2,nt,0.3,-4.7%,-8.8,
O=C(c1ccc(F)cc1)c1ccc(-c2ccc(F)cc2)nc1,nt,nt,2.2,nt,4.1,
Cc1cc(C[n+]2ccccc2)c2nsnc2c1,14.1,-23.2,0.1,3.3%,-4.8,
CN(C)S(=O)(=O)c1ccc(-n2cccc2)cc1,-0.1,nt,-3.6,4.0%,7.8,
COc1cc(NC(=O)Cn2c(=O)n(CC3CCCO3)c(=O)c3ccccc32)cc(OC)c1 (stereo unspecified),8.3,nt,-0.2,-1.1%,-11.4,
Cc1sc[n+](CC(=O)c2ccc(Br)cc2)c1C,nt,nt,1.1,nt,-2.4,
C/C(=N\NS(=O)(=O)c1ccc(Cl)c([N+](=O)[O-])c1)c1cc2ccccc2o1,4.4,-18.0,17.8,-2.0%,-2.7,
N#C/C(=C(/O)CN1CCN(c2ccccc2F)CC1)c1nc(-c2ccc(Cl)cc2)cs1,-6.1,-32.4,2.4,11.2%,4.5,
O=C(COc1ccccc1Br)N1CCN(c2ccccc2)CC1,9.1,-17.7,-1.1,5.5%,5.5,
Cc1sc2nc(C(C)C)nc(SCC(=O)N3CCN(C(=O)c4ccco4)CC3)c2c1C,-17.8,-42.6,8.1,7.1%,-0.4,
Cc1[nH]c(=O)[nH]c(=O)c1S(=O)(=O)N1CCCc2ccccc21,nt,nt,-0.3,nt,-8.7,
CC1CCC(C(C)C)C(OC(=O)CSc2nccc(=O)[nH]2)C1 (stereo unspecified),2.8,-14.4,2.6,-8.8%,9.2,
CCN1C(=O)[C@@H]2[C@H](C1=O)[C@@H]1C(=O)Nc3ccccc3C(=O)N1[C@@H]2c1cccc(Cl)c1,nt,nt,-5.0,nt,-10.5,
# (cont.)
SMILES,Arbovirus anti,YopH PTP inh,RecA intein inh,Mtb H37Rv,Mtb bLac sens,others
O=C(OCC(O)COc1ccccc1)c1ccc([N+](=O)[O-])cc1 (stereo unspecified),nt,nt,1.1,nt,96.6,
CCOC(=O)c1ccc(N2Cc3ccccc3C2=NC(=O)c2ccncc2)cc1,6.5,nt,nt,?,nt,
COc1ccccc1Nc1nc2ccccc2n2cnnc12,nt,nt,-1.8,6.4%,-8.3,
Cc1ccc(-n2c(=O)[nH]c3c(C(N)=O)nc(C(C)C)nc32)cc1,nt,nt,-2.5,nt,0.6,
Cc1ccc(S(=O)(=O)NC2CCCCC2)c2nsnc12,4.6,-29.7,1.7,-6.3%,0.9,
FC(F)(F)c1ccccc1NC(=S)N1CCN(Cc2ccc3c(c2)OCO3)CC1,17.6,nt,5.3,-1.0%,3.0,

# A portion of the library; the hit share may differ from the screen's.
